Screening data as filed in PubChem BioAssay.
CtBP-E1A blk: qHTS Assay for Inhibitors of the CtBP/E1A Interaction; activity change, % (no concentration beside the values); AlphaScreen GST-E1A/His-CtBP binding, 1536-well; active compounds read low; control for the full effect not named in the record; 0.49% of 340,000 active; CtBP / adenovirus E1A interaction (AlphaScreen); AID 651724, 2012; in the data active means activity change below about -65%; inconclusive means about -30% to -65%; inactive means above about -30%; also: % is scaled to controls: 0 for no effect and ±100 for the full control effect
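Protein mix (5X: 125 nM each GST-E1A, His-CtBP) was incubated with pinned compound 2 h at 37 deg C in dark, in 50 mM Tris pH 8.0 buffer with 300 mM NaCl. Glutathione donor and nickel acceptor beads followed; AlphaScreen signal read after 1 h.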
TRPML1 ag: qHTS for Agonists of the Human Mucolipin Transient Receptor Potential 1 (TRPML1); Mucolipin-1 (Homo sapiens), Q9GZU1; 0.12% of 410,000 active; AID 624414, 2012; TRPML1-expressing cells, Ca2+ dye fluorescence, FDSS; host cell line not named in the record; reference of the full effect not given here; activation, % (test concentration not listed); in the data active = activation above about 50%; inconclusive = about 30% to 50%; inactive = below about 30%; also: 0% is about no effect; the text of the record puts the active cut at 80%
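Cells: TRPML1-DL, 1X Tet inducer, ~16 h at 37 degrees C/5% CO2. Dye: ABD Ca8 no-wash + quencher, 45-90 min RT. Read: 10 s baseline, compound add, 110 s agonist phase; 54-4 EC80 (4uM final), 110 s antagonist phase.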
PINK1 modulator: A Quantitative High throughput Screen to Identify Chemical Modulators of PINK1 Expression; PINK1 immunofluorescence, high-content cytometry, 24 h; Potency, µM (doses to about 76.6 µM), inactives show at the highest dose activation (PINK1 increase), most hits filed as activators; 0.2% of 410,000 active; AID 624263, 2012; active = well fitted activation curve with a large enough effect; inconclusive = small, poorly fitted or top-dose-only effect; inactive = flat fitted curve, though single readings scatter; cell line not stated here;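 also: potency is read from the fitted curve at half-maximal effect; % of control where 0% means no effect; nearly all actives have a fitted effect of over 65% in size; a mitochondrial uncoupler was the plate control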
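Measures PINK1 amount and localization on or inside mitochondria by immunofluorescence. Stable cells get compounds at 5 concentrations for 24 hours before fixation and staining; CCCP controls included.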
D2 potentiator: Beta-Arrestin HTS for Positive Allosteric Modulators of the Human D2 Dopamine Receptor: Potentiators; D(2) dopamine receptor (Homo sapiens), P14416; DiscoveRx D2 beta-arrestin cells, luminescence, 90 min; 100% = 57 uM dopamine signal; potentiation, % (concentration not given with the values); 0.23% of 360,000 active; active = potentiation of 50% or more; inconclusive = 30% to 50%; inactive = 30% or less;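 also: compound concentration not given in the record; tested on top of an EC20 dose of dopamine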
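PathHunter beta-arrestin assay in DiscoveRx D2 cells. Compounds were added with an EC20 of dopamine (50 nM final) for 90 min at 37 deg C. Luminescence was read 1 h after detection reagent, with 57 uM dopamine as the EC100 control.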
D2 agonist: Beta-Arrestin HTS for Positive Allosteric Modulators of the Human D2 Dopamine Receptor: Agonists; D(2) dopamine receptor (Homo sapiens), P14416; DiscoveRx PathHunter D2 beta-arrestin, luminescence, 90 min; 100% = 57 uM dopamine signal; activation, % (no concentration beside the values); 0.084% of 360,000 active; AID 624465, 2012; in the data active = activation above about 40%; inconclusive = about 15% to 40%; inactive = below about 15%; also: compound concentration not given in the record; the text of the record calls up to 30% inactive
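DiscoveRx PathHunter D2 beta-arrestin cells (2,100/well) attached overnight, then compound-stimulated 90 min at 37 C in HBSS/10 mM HEPES/0.1% Tween-20 buffer; beta-galactosidase complementation read by luminescence after 1 h at ambient temperature. Dopamine 57 uM final (EC100) as control.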
Six1-Eya2 blk: qHTS Assay for Inhibitors of the Six1/Eya2 Interaction. activity change, % (no concentration beside the values). 0.56% of 360,000 active. AID 651725, 2012. AlphaScreen GST-Six1/His-Eya2 binding, biochemical; active compounds read low; control for the full effect not named in the record. Homeobox protein SIX1 (Homo sapiens) + Protein phosphatase EYA2 (Homo sapiens), …; in the data active = activity change below about -65%; inconclusive = about -30% to -65%; inactive = above about -30%; also: % is scaled to controls: 0 for no effect and ±100 for the full control effect
Target sequence (O00167 whole entry, looked up): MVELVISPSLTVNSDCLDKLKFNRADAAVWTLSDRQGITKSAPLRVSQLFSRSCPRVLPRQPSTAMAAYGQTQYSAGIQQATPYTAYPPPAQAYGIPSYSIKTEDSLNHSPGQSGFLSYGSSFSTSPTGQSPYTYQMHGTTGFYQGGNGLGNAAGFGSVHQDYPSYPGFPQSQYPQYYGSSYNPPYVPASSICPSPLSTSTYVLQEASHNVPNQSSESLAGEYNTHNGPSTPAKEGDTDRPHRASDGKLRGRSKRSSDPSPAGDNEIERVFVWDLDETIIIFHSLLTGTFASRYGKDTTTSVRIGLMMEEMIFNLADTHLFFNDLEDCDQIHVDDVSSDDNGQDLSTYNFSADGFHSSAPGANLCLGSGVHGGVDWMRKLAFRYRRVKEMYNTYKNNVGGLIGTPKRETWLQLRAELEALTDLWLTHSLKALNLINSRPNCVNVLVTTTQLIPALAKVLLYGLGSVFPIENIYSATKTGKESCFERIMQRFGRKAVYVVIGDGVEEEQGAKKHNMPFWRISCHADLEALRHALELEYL
Target sequence (Q15475 whole entry, looked up): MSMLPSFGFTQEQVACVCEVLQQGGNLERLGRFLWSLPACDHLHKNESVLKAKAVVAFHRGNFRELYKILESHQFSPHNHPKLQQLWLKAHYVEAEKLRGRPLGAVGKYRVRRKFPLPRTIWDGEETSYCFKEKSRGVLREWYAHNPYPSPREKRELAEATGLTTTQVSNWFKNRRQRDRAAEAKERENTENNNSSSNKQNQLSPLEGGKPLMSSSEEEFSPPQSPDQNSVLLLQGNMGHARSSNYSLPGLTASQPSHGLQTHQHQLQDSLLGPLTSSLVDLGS
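Six1/Eya2 binding was read as AlphaScreen signal after compounds were pinned into GST-Six1 plus His-tagged Eya2 (5X stock 250/500 nM) in pH 8.0 Tris/NaCl/TCEP buffer, beads added, then incubated 1 h, 37 C, dark.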
* hit, by the source's call; u = inconclusive; x = not tested or not shown; & = joins results of further samples; [ ] = dose if it differs, or a comment.

SMILES	CtBP-E1A blk	TRPML1 ag	PINK1 modulator	D2 potentiator	D2 agonist	Six1-Eya2 blk
CCOC(=O)c1c[nH]c2c(C(=O)c3ccccc3)cc(Cl)cc2c1=O	2	1.0	6.4%	-1	-4.2	10
O=C(CNC(=O)c1ccc(Cl)cc1)OCN1C(=O)c2ccccc2C1=O	-3	0.4	-1.1%	13	-2.5	9
CC(C)c1cc(CNC(=O)c2cc(COc3cncc(Cl)c3)on2)on1	x	-1.3	0.1%	-9	-2.2	-12
Cc1nc2c(Cl)cccc2c2c1CC(CBr)O2 (configuration not stated)	9	2.1	1.1%	-4	1.8	22
CCCC(=O)Nc1ccc(-c2nc3cc(C)ccc3o2)cc1	0	3.0	-1.4%	-6	-1.0	-2
O=C(COC(=O)c1cnccn1)Nc1ncc(Cl)cc1Cl	0	1.6	-0.1%	8	-2.1	-12
COc1cccc(N2CCN(C(=O)c3ccc4nc[nH]c4c3)CC2)c1	0	-0.8	-0.2%	15	3.8	-7
CC1CCCN(C(=O)COC(=O)Cn2cnc3ccccc32)C1 (configuration not stated)	7	0.1	-2.1%	-13	-8.7	2
CCCN(CC(=O)Nc1ccccc1C)C(=O)c1oc2ccc(OCC)cc2c1C	6	-0.2	3.5%	-4	-4.8	-2
Cc1ccc(-c2nn3c(=O)c(C)nnc3s2)cc1	1	-0.4	x	0	-0.1	5
CN1/C(=C/c2cccc[n+]2CCO)Sc2ccccc21	-5	0.3	0.0%	-5	2.2	12
COc1ccc(OC)c(C(C)NC(=O)Nc2ccccc2)c1 (configuration not stated)	x	-1.3	1.2%	-3	-2.2	-1

Part of the list above, with each value named:
Cc1ccc(-c2nn3c(=O)c(C)nnc3s2)cc1
  CtBP-E1A blk: 1; TRPML1 ag: -0.4; PINK1 modulator: x; D2 potentiator: 0; D2 agonist: -0.1; Six1-Eya2 blk: 5
CCCN(CC(=O)Nc1ccccc1C)C(=O)c1oc2ccc(OCC)cc2c1C
  CtBP-E1A blk: 6; TRPML1 ag: -0.2; PINK1 modulator: 3.5%; D2 potentiator: -4; D2 agonist: -4.8; Six1-Eya2 blk: -2
O=C(CNC(=O)c1ccc(Cl)cc1)OCN1C(=O)c2ccccc2C1=O
  CtBP-E1A blk: -3; TRPML1 ag: 0.4; PINK1 modulator: -1.1%; D2 potentiator: 13; D2 agonist: -2.5; Six1-Eya2 blk: 9

Further results follow:
SMILES	CtBP-E1A blk	TRPML1 ag	PINK1 modulator	D2 potentiator	D2 agonist	Six1-Eya2 blk
Cc1ccc(-c2nc3cc(N)ccc3o2)cc1	0	-1.0	0.9%[38.3 µM]	-1	0.3	2
CCOc1ccc(S(=O)(=O)NNS(=O)(=O)c2ccc(C)cc2C)cc1	7	0.2	1.2%	3	-4.3	4
O=C(NNC(=O)c1cccc2ccccc12)c1ccc(Cl)cc1	-2	1.5	20%	-5	0.0	-5
COC(=O)c1ccc(/C=N/Nc2nc(C)c(C)s2)cc1	-9	0.6	1.4%	6	2.3	-6
Clc1cc2nc[nH]c2cc1Cl	10	0.1	1.0%	-11	-3.5	30
CCOc1ccc(N(CC(=O)NC2CCCCC2)C(=O)Cn2nnc(-c3ccc(C)o3)n2)cc1	-6	0.4	1.4%	-6	-1.1	-11
COc1ccc(NC(=O)C2(C)Cc3c(-c4ccc(NC(C)=O)cc4)ccnc3O2)cn1 (configuration not stated)	0	-0.9	6.3%	2	-2.2	-1
c1coc(CN2CCN(C(c3cccs3)c3nnnn3C3CCCC3)CC2)c1 (configuration not stated)	-5	2.0	0.3%	-20	-2.3	-14
O=C(Nc1cccc(Cl)c1)c1ccc2sc([C@H]3C[C@H](O)[C@@H](CO)O3)nc2c1	-13	0.5	2.1%	-6	-1.5	-7
CN(C)c1ccc(-c2csc(C(O)c3cccc(Cl)c3)n2)cc1 (configuration not stated)	u	0.5	15%	-14	0.7	u
O=S(=O)(c1ccc(Oc2ccc(Br)cc2F)nc1)N1CCCCC1	20	-0.5	1.6%	-4	-3.0	10
Cc1ccc(C(=O)O/N=C/c2c(N3CCOCC3)n(C)c3ccccc23)cc1	-1	1.0	0.0%[38.3 µM]	85*	u	-7
Cc1ccc(-c2nnc(SCC(N)=O)n2C)cc1	6	0.1	2.7%	-8	-0.7	3
CCN(CC(=O)Nc1ccc2c(c1)OCCO2)C(=O)COc1ccc(C)cc1	-2	0.3	-1.7%	2	2.5	-3
CC(Nc1ccccc1CO)C(=O)Nc1cccc(Cl)c1Cl (configuration not stated)	15	-0.3	1.0%	-1	1.3	1
CCN(CC)C(=O)C1CCCN(c2ccc([N+](=O)[O-])cc2/C=N/NC(=O)c2ccc([N+](=O)[O-])cc2)C1 (configuration not stated)	-8	1.3	0.8%	-1	2.0	-7
CC[C@@H]1CCCCc2ccccc2[C@@H](C(=O)C[C@@H](O)CC(C)=O)OC1=O	-2	-0.6	-1.0%	-1	-1.2	1
Cc1ccc(Nc2cc(C)c3c(O)cccc3n2)cc1C	-1	x	5.4%	-23	0.6	-3
O=C(O)CN1C(=O)/C(=C\c2ccccc2OCc2ccccc2)SC1=S	-1	0.3	-0.7%	-16	-1.3	-6
O=C1NC[C@H](Cc2ccccc2)N(CCc2cccc(F)c2)C1=O	5	-0.5	-0.5%	1	-2.4	2
CCOc1ccc(CCNC(=O)C(CCC(N)=O)NC(=O)OCc2ccccc2)cc1OCC (configuration not stated)	8	1.7	1.1%	-12	-5.3	2
CC(C)[C@H](NC(=O)c1ccccc1F)C(=O)OCC(=O)NC(=O)NC1CCCCC1	11	0.1	2.5%	12	0.2	-9
Cc1ccc(NC(=O)NC2CCCCC2)c(C)c1	-1	1.4	1.3%	-5	-2.8	-5
CCN1C(=O)[C@H]2[C@@H](c3ccc(-c4cccc(Cl)c4)c(OC)c3)N[C@@](CC(C)C)(C(=O)OC)[C@H]2C1=O	-5	-0.4	2.6%	-19	-3.5	-4
COc1ccnc(Oc2ccc3ccccc3c2)c1C#N	-14	0.2	11%	-7	-6.3	8
O=C1NC(=O)c2cc(NC(=O)C3CCCO3)ccc21 (configuration not stated)	3	-0.7	9.1%[38.3 µM]	2	-1.6	3
CCOC(=O)c1c(NC(=O)COC(=O)c2ccccn2)sc(C(=O)N(C)C)c1C	9	0.2	-0.4%	-21	-3.6	-11
OCCN1CCN(CC#CCn2c3ccccc3c3ccccc32)CC1	-1	-0.3	-0.9%	-12	-0.7	-4
CCCOc1ccc(NC(=O)Cc2ccc(S(=O)(=O)N3CCOCC3)s2)cc1OCCC	-1	0.5	u	-19	0.4	-7
COc1ccc(-c2csc(NC(=O)c3ccccc3NS(=O)(=O)c3ccc(F)c(F)c3)n2)cc1	-1	0.7	u	5	0.8	-12
Cc1n[nH]c(=S)n1/N=C/c1c(O)ccc2ccccc12	-23	0.3	2.8%	-6	u	-11
Cc1cc(C)c(NC(=O)Cn2cnc3c(oc4ccccc43)c2=O)c(C)c1	1	-0.3&-0.9	7.2%&-0.4%	-6	4.9	1
O=C(NCCNC(=O)c1ccc([N+](=O)[O-])cc1)c1ccncc1	2	0.3	-1.4%	-5	0.1	11
CCCCc1cc(=O)oc2cc(C)cc(OCC(=O)N3CCC(C(=O)O)CC3)c12	-8	x	-0.7%	-16	-4.5	2
CC1CN(CCCCOc2ccc(Cl)c3ccccc23)CC(C)O1 (configuration not stated)	3	1.3	u	-12	-0.1	-4
C[C@H](CO)N1C[C@H](C)[C@@H](CN(C)S(=O)(=O)c2ccc(F)cc2)Oc2c(NC(=O)Nc3ccccc3)cccc2C1=O	x	0.0	2.0%	4	4.5	-8
CCCC[C@@H](CN[C@H](C)CNC)NCC1CCC(C(C)(C)C)CC1 (some centres not stated)	-4	1.2	-0.5%	-8	-4.3	4
COc1ccc(C(NC(C)=O)c2c(O)ccc3ccccc23)cc1OC (configuration not stated)	-2	1.6	-1.7%	-19	-4.7	1
CNC(=O)COC(=O)c1[nH]c(C)c(C(C)=O)c1C	-8	0.5	-2.6%[38.3 µM]	-11	-0.7	-3
CC(NC(=O)COC(=O)/C=C/c1ccc2c(c1)OCO2)c1ccccc1 (configuration not stated)	x	0.5	1.5%	3	-4.7	4
O=C(Nc1ccc([N+](=O)[O-])cn1)c1ccc2c(c1)OCO2	x	0.1	0.8%	-4	-0.2	3
CC(=O)Nc1ccc(NS(=O)(=O)c2cccc3ccccc23)cc1	2	-0.5	-3.6%[38.3 µM]	-1	-0.7	-2
COc1ccc(C2=NN(c3ccccc3)C(=O)/C2=C\c2ccc(O)c(OC)c2)cc1	x	-0.1	0.7%	-9	-6.5	-2
COc1ccc(NC(=O)CCCC(=O)c2ccccc2)c(OC)c1	x	1.2	2.1%	-5	0.1	-4
Cc1ccc(N2CC(C(=O)Nc3c4c(nn3C(C)(C)C)CS(=O)(=O)C4)CC2=O)cc1 (configuration not stated)	-3	0.8	1.7%	-8	-2.8	-10
CC(c1ccc(C(C)(C)C)cc1)S(=O)CC(O)CO (configuration not stated)	6	0.5	2.5%	17	-0.7	4
O=C(Nc1ccc2c(c1)OCCO2)C(c1cc2ccccc2o1)N1CCN(c2ccc(C(F)(F)F)cn2)CC1 (configuration not stated)	-8	-0.3	-0.1%	1	0.6	-16
COc1ccc(CN2CCCC(C(=O)N3CCCC3)C2)c(OC)c1 (configuration not stated)	-5	0.3	2.0%	-11	-1.3	5
COc1ccc(C2=C(C=Nc3c(C)n(C)n(-c4ccccc4)c3=O)C(c3ccccc3C)c3ccccc3O2)cc1OC (configuration not stated)	-20	-0.5	2.2%	-10	-4.4	0
Cc1cc(C(=O)OCC(=O)N2C(C)CCCC2C)c2ccccc2n1 (configuration not stated)	-17	-0.6	0.4%	-26	0.6	22
COC(=O)c1cccc(C(=O)N2CCC(CO)(Cc3ccccc3Cl)CC2)c1	1	0.9	-1.0%	6	-4.9	0
CC(C)=C(NC(=O)c1ccccc1)C(=O)NCc1ccccc1	3	-0.1	0.4%	-8	-2.1	4
CN(C)CCCN(C(=O)c1cc2cc([N+](=O)[O-])ccc2s1)c1nc2cc3c(cc2s1)OCCO3	u	0.0	-3.3%	7	5.2	-18
Cc1ccc(S(=O)(=O)N2CCN(C(=O)COC(=O)CNC(=O)c3ccccc3F)CC2)c(C)c1	-19	-0.3	0.5%	1	u	-13
CCC(C)(C)n1nnnc1C(c1ccc(OC)c(OC)c1)N1CCN(c2cccc(OC)c2)CC1 (configuration not stated)	-6	1.4	-0.1%	-12	1.6	-7
CC1(C)CC(=O)C=C(c2ccc(-c3ccccc3)cc2)C1=O	-13	3.9	2.8%	-4	0.3	-22
CCOC(=O)C(Cc1c[nH]c2ccccc12)NC(=O)CNC(C)=O (configuration not stated)	4	-0.4	-3.3%	-6	-3.2	2
CCOc1ccc(OCC(O)CNC2CCN(Cc3ccccc3)CC2)cc1 (configuration not stated)	0	1.3	-0.1%	-25	-1.7	-3
